From PubChem
Mtb growth = M. tuberculosis H37Rv growth inhibitors, H37Rv strain (AID 1626); inhibition, % at 10 µM, or IC50 in µM where a hit was titrated; 220,000 compounds, 0.95% hits; M. tuberculosis H37Rv growth inhibition; higher % means a stronger effect;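 active = confirmed in a dose series; inconclusive = inhibition above 80% but not taken into the dose series; inactive = below 80% or under 30% at every dose of the series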;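 note: bacteria incubated seven days before Alamar blue readout; 0% = bacteria only wells and 100% = bacteria with antibiotic wells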
Mtb bLac sens = beta-lactam sensitization of Mtb H37Rv; M. tuberculosis H37Rv growth with meropenem, percent inhibition; hits of this screen are not shown here; inhibition, % at 25 µM; 330,000 compounds, 0.27% hits; AID 434955;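 active = about 74% or more and at least 40 points above the plate without the antibiotic, then above 30% in a dose series; inconclusive = first-round hits that could not be retested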;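 note: growth measured after seven days incubation then overnight dye step; 0% = bacteria only wells and 100% = bacteria with antibiotic; twin plates without the antibiotic show which effects depend on it; some results filed as inactive read as strong as hits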
YopH PTP inh = inhibitors of Yersinia enterocolitica YopH tyrosine phosphatase | fluorescence Ex485/Em525 | AID 898 | inhibition, %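 (about 10 µM by stock and volumes)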 | 140,000 compounds, 0.16% hits;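 active = inhibition of 50% or more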;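 note: controls were vehicle for no effect and minimum signal wells for full effect; inactives centre near -20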
RecA intein inh = Mtb RecA intein splicing inhibition; cell-free RecA intein splicing, fluorescence; inhibition, %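 (about 9 µM by stock and volumes)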; 290,000 compounds, 0.75% hits; AID 2221; in the data active = inhibition above about 30%; inconclusive = no clear call, values can overlap the other calls;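 note: 0% = vehicle wells and 100% = reference inhibitor control wells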
Target sequence (P9WHJ3 whole entry, looked up): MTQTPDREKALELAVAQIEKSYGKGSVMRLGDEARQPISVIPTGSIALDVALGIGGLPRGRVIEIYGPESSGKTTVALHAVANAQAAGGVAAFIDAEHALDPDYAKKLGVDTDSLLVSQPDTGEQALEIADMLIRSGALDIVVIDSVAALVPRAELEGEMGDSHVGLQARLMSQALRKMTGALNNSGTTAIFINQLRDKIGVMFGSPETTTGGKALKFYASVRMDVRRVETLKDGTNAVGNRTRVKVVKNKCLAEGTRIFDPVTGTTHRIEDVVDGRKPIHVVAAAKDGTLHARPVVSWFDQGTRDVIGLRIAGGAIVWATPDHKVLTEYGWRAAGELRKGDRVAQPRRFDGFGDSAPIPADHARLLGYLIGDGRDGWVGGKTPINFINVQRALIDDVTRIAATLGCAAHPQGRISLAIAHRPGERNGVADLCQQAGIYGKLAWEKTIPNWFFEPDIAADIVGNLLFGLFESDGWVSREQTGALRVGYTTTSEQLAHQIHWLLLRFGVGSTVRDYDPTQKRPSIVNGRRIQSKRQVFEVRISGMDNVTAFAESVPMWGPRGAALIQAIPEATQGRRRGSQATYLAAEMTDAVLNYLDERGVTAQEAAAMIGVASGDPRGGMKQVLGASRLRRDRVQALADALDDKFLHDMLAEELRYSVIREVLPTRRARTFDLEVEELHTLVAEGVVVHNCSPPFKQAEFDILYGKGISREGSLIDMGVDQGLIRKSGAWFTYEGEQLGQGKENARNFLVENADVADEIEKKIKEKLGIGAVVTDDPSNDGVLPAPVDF
Arbovirus anti = arbovirus infection inhibition; arbovirus infection cell-based antiviral screen; inhibition, % at 10 µM; AID 1251; 200,000 compounds, 0.37% hits;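 active = inhibition from about 30%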;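 note: bluetongue infection of BSR cells; cell survival read as ATP light after 72 h; 0% = infected wells without compound and 100% = uninfected wells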
Arbovirus anti repeat = also measured in Arbovirus anti; calls as there; inhibition, %; measured here: 10K subset replicate screen; many hits read low in the repeat;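 first of two repeat runs on a subset; 0% = infected and 100% = uninfected wells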
Active calls of the source: *; ? = inconclusive; . = not tested or not shown.

SMILES	Mtb growth	Mtb bLac sens	YopH PTP inh	RecA intein inh	Arbovirus anti	others
CN1C(=O)c2ccccc2Sc2ccc(NC(=O)N3CCOCC3)cc21	-7%	-3	.	-4.1	-1
Cc1cc(=O)oc2cc(OCC#N)ccc12	-8%	-12	-25	0.0	-1	Arbovirus anti repeat=0
CN1CCN(c2ccccc2NC(=O)c2ccc(Br)o2)CC1	2%	0	-27	0.3	9
CCOC(=O)c1ccc2nc(C)cc(Nc3cccc(C(=O)O)c3)c2c1	.	-3	-40	-1.0	10
NS(=O)(=O)c1ccc(CCNC(=O)c2ccc3c(c2)N(Cc2ccccc2)CCS3)cc1	.	-1	.	0.1	.
CSc1ncc(C(=O)Nc2ccc(C(C)=O)cc2)c(-c2ccccc2)n1	.	1	.	-6.0	.
O=[N+]([O-])c1cccc(CNc2ccc3c(c2)CCC3)c1	6%	8	-18	4.3	-11
CCN(CC)S(=O)(=O)c1ccc(-c2nnc3sc4cccc(C)c4n23)cc1	6%	-6	-2	-2.1	6	Arbovirus anti repeat=0
COc1ccc(CNc2ccc(Cl)cc2)cc1Cn1ccnc1	.	87	.	6.6	.
N/C(=N\S(=O)(=O)c1ccc(Cl)s1)c1ccccc1	8%	-8	-47	-1.9	-2
Nc1[nH]n2c(=O)cc(-c3ccccc3)nc2c1N=Nc1ccc2c(c1)OCO2	17%	95	.	-0.8	4
CCc1nc(Nc2ccc3c(c2)OCCO3)c2oc3ccccc3c2n1	1%	6	-19	-0.9	3
CCCCCC(=O)N1CCCCC1	-18%	1	.	3.2	.
Cc1ccsc1C(C(=O)NC1CCCCC1)N(C(=O)c1csnn1)C1CC1 (stereo unspecified)	-9%	-18	-24	0.3	5
O=C(NCc1cccs1)C(=O)NCC(c1ccco1)N1CCN(c2ccccc2)CC1 (stereo unspecified)	77%	-1	.	0.8	1
Cc1ccc2cc(/C=N/NC(=O)CN3CCCCC3)c(Cl)nc2c1	-4%	1	.	2.4	6
CCOC(=O)COc1ccc(C)cc1-c1ccno1	-4%	88	-25	-3.6	-3
CC(C)CCNC(=O)C(c1cccnc1)N(CCc1ccccc1)C(=O)Cn1nnc2ccccc21 (stereo unspecified)	7%	-7	-22	-0.6	4
CCS(=O)(=O)c1nc(S(=O)(=O)c2ccc(Cl)cc2)c(NCCCN2CCOCC2)s1	.	2	.	-5.9	.
COCCCC1CCN(C(=O)C2CCC(=O)N(C3CCCCCC3)C2)CC1 (stereo unspecified)	.	-1	.	-0.9	.
CC(=O)c1cc(C#N)c(SCc2ccc(F)cc2)nc1C	-4%	-1	-15	0.6	-7
COc1cccc(NC(=O)NCc2cccn2C)c1	-4%	-18	5	1.1	-1
CCC(C)[C@H](NC(=O)[C@@H]1Cc2c([nH]c3ccccc23)C2c3ccccc3C(=O)N21)C(=O)NCC1CCCO1 (stereo partly specified)	.	3	.	0.3	.
O=C(OCC1COc2ccccc2O1)c1c(F)cccc1F (stereo unspecified)	59%	5	-26	6.8	-1	Arbovirus anti repeat=2
CC(C)C(=O)N1CCN(c2ccc(NC(=O)c3ccc([N+](=O)[O-])o3)cc2Cl)CC1	?	.	.	.	-32
O=C1NCCN1CCNS(=O)(=O)c1ccc2ccccc2c1	4%	14	-19	0.2	7
CCOc1ccccc1-n1nnnc1SCC(=O)Nc1cc2oc3ccccc3c2cc1OC	-14%	-3	-1	0.4	-17
O=[N+]([O-])/C(=C\Nc1ccccc1Cl)S(=O)(=O)c1ccccc1	0%	-8	-34	.	5
CCCCN(C(=O)c1c(C)[nH]c(C(=O)OCC)c1C)c1ccccc1	-3%	-5	1	-0.6	-13
COc1ccc(C(=O)NC(=S)Nc2ccc(N3CCOCC3)c(Cl)c2)cc1[N+](=O)[O-]	?	96	-25	2.3	-1
COc1ccc(CN(C(=O)CN2C(=O)c3ccccc3S2(=O)=O)C(C(=O)NCC2CCCO2)c2ccco2)cc1 (stereo unspecified)	.	5	.	-0.5	.
COc1ccc(C(=O)NNC(=O)c2cc3cccc(OC)c3oc2=O)cc1	37%	46	.	-1.3	-6
COc1cc(OC)nc(/N=C/NO)n1	-3%	-11	.	-3.4	.
COC(=O)c1nn(C23CC4CC(CC(C4)C2)C3)c2c1C(=O)N(c1ccc(F)cc1)C2=O	-5%	-4	-50	0.7	5
COc1ccc(CCN2C(=O)C3C4CC(C5C(C(=O)N/N=C\c6ccc(Cl)cc6)=NOC45)C3C2=O)cc1OC (stereo unspecified)	2%	7	-39	-0.8	3
Cc1ccc(NC(=O)c2ccc(Cl)c(NC(=O)c3cccs3)c2)cc1	.	18	.	8.4	.
COC(=O)/C=C/CC(C)OS(N)(=O)=O (stereo unspecified)	.	-4	.	-1.0	.
C=CCOC(=O)C1=C[C@@H](c2ccc(Br)cc2)C[C@@H](OCc2ccc(CO)cc2)O1	6%	67	.	12	6
CCN(CC)C(=O)CSc1nc(O)c(Cc2ccccc2)c(=O)n1-c1ccccc1C	-1%	5	.	-0.7	.
CCn1c(SCC(=O)NCc2cccs2)nnc1-c1ccco1	3%	-7	-37	-3.8	-4
CCOC(=O)C1=C(COc2ccc(F)cc2Cl)NC(=O)NC1c1cc(C)ccc1C (stereo unspecified)	-12%	-5	-2	1.0	-7
COc1ccccc1-c1cn[nH]c1-c1ccc(OCc2ccccc2)cc1O	-4%	71	.	-1.3	.
O=C(c1ccc(F)c(S(=O)(=O)N2CCOCC2)c1)N(c1ccccc1)c1ccccn1	-1%	0	.	-0.8	7
CCOC(=O)C1CCCN(C(=O)C2CCN(S(=O)(=O)c3cccs3)CC2)C1 (stereo unspecified)	-2%	-3	-14	-0.8	5
COc1ccccc1CNCC(=O)Nc1ccc(C(F)(F)F)cc1	.	0	.	1.4	.
Cc1cc(C(=O)Nc2ccc(S(=O)(=O)Nc3onc(C)c3C)cc2)cs1	-8%	5	-16	0.4	-10
CCOC(=O)c1c(NC(=O)CSc2nc3ccccc3c(=O)n2-c2ccccc2)sc(C(C)=O)c1C	3%	1	-27	0.8	5
Cc1ccc(-n2c(O)c(/C=C/C=Nc3ccccc3)c(=O)[nH]c2=O)cc1	9%	-1	-6	-0.4	-2
CC(C)NS(=O)(=O)c1ccc(CCC(=O)N2CCC(C(N)=O)CC2)cc1	-7%	-9	.	1.2	1
Cc1cccc(NC(=S)N2CCN(c3ccc(F)cc3)CC2)c1	2%	-1	.	.	15
O=C(NN1C(=O)C2C(C1=O)C1C=CC2C12CC2)c1cccnc1 (stereo unspecified)	-3%	29	.	1.8	6
CCN(CC)S(=O)(=O)c1ccc2c(c1)nc(CCC(=O)Nc1cccc(C(F)(F)F)c1)n2CC	6%	-9	-128	3.0	4
O=C1CSC(c2ccccc2F)N1c1ccccc1 (stereo unspecified)	-8%	-5	-20	1.7	0
CCOC(=O)c1ccc(NC(=S)N2CCN(C(=O)C3CCCO3)CC2)cc1 (stereo unspecified)	.	-2	.	0.4	.
CN(C)S(=O)(=O)c1ccc(N2CCCC2)c(C(=O)NCc2ccc(Cl)cc2)c1	5%	0	-14	0.5	-12
CC(C)C(=O)Nc1nc(-c2ccccc2)ns1	4%	-2	0	-2.3	9
CCN(CC)S(=O)(=O)c1ccc(N2CCCC2)c(NC(=O)C2=COCCO2)c1	.	-17	.	-0.3	.
O=C(Nc1cccc(Cl)c1N1CCCC1)c1ccc([N+](=O)[O-])o1	16%	99	.	1.7	17
CCOCCCNC(=O)C1CCN(C(=O)Nc2ccc(C)cc2)CC1	-8%	-7	-55	-2.6	-2
O=C(CN1C(=O)c2ccccc2C1=O)Nc1ccc(N2CCOCC2)cc1	1%	-7	-49	-1.1	7

(cont.)
SMILES	Mtb growth	Mtb bLac sens	YopH PTP inh	RecA intein inh	Arbovirus anti	others
C=CCOC(=O)COc1cc(C)cc2oc(=O)c3c(c12)CCC3	-5%	8	-172	1.7	2	Arbovirus anti repeat=-2
CCCCN(C(=O)c1ccc(S(=O)(=O)N2CCCC2)cc1)C1CCS(=O)(=O)C1 (stereo unspecified)	.	-2	.	-0.1	.
c1nc(N2CCN(Cc3ccc4c(c3)OCO4)CC2)c2[nH]cnc2n1	2%	-4	-21	0.5	-27
CC(C)N(C(=O)C(F)(F)F)C(C(=O)NC1CCCCC1)c1ccncc1 (stereo unspecified)	-6%	13	-21	-2.6	0
Cc1ccccc1NC(=O)Nc1ccc2c(c1)OCO2	.	3	.	-2.3	.
COc1ccc(OC)c(-c2csc(-c3cccs3)n2)c1	.	50	.	-2.3	.
CCCn1c(=O)c(C(=O)Nc2ccccc2C)c(O)c2ccccc21	.	1	.	-1.5	.
COc1ccc(Cl)cc1NC(=O)COC(=O)CNC(=O)c1ccc([N+](=O)[O-])c(C)c1	5%	8	-16	0.8	-1
Cc1cc(-c2nnc3n2CCCCC3)c(C)n1-c1ccccc1	-3%	99	-30	2.8	5
Cc1ccc(-c2[nH]c(-c3ccc(C(=O)O)cc3)nc2-c2ccccc2)cc1	4%	4	-7	7.5	-9
Cc1cc(Cl)ccc1OCc1nnc2n1CCCCC2	4%	8	.	-2.7	3
COc1ccc(-n2c(C)c(C)c3c(NCCCO)ncnc32)cc1	.	3	.	0.0	.
COc1ccc2c(c1)c(=O)c(C(=O)c1ccccc1)cn2Cc1ccc(C)cc1	13%	-3	-26	2.6	-16
COc1ccc(CCn2c(N)c(S(=O)(=O)c3cccs3)c3nc4ccccc4nc32)cc1OC	4%	5	-22	2.6	2	Arbovirus anti repeat=6
O=C(Nc1ccc(-c2csc(Nc3cccc(C(F)(F)F)c3)n2)cc1)c1cc([N+](=O)[O-])cc(C(F)(F)F)c1	7.4µM*	77	.	-1.7	.
N#C/C(=C\c1cn(Cc2ccccc2)c2ccccc12)C(=O)NCc1ccco1	9%	-2	7	-13	-16
CN(C)c1ccc(C=NCCC2(O)CCOC(C)(C)C2)cc1 (stereo unspecified)	-2%	-7	1	-1.8	0
CN(C(=O)CS(=O)(=O)c1cccc(Cl)c1)c1ccccc1	-4%	-12	.	0.5	-1
Cc1cc(N2CCN(C)CC2)nc2ccc(NC(=S)N3CCN(c4cccc(Cl)c4)CC3)cc12	-4%	-2	.	-2.1	-8
C/C(=N\NC(=O)c1cccc([N+](=O)[O-])c1)c1cccnc1	.	-6	.	-1.1	.

Of the compounds above, these contain an aryl thioether with sulfur outside any ring:
SMILES	Mtb growth	Mtb bLac sens	YopH PTP inh	RecA intein inh	Arbovirus anti	others
CSc1ncc(C(=O)Nc2ccc(C(C)=O)cc2)c(-c2ccccc2)n1	.	1	.	-6.0	.
CC(=O)c1cc(C#N)c(SCc2ccc(F)cc2)nc1C	-4%	-1	-15	0.6	-7
CCOc1ccccc1-n1nnnc1SCC(=O)Nc1cc2oc3ccccc3c2cc1OC	-14%	-3	-1	0.4	-17
CCN(CC)C(=O)CSc1nc(O)c(Cc2ccccc2)c(=O)n1-c1ccccc1C	-1%	5	.	-0.7	.
CCn1c(SCC(=O)NCc2cccs2)nnc1-c1ccco1	3%	-7	-37	-3.8	-4
CCOC(=O)c1c(NC(=O)CSc2nc3ccccc3c(=O)n2-c2ccccc2)sc(C(C)=O)c1C	3%	1	-27	0.8	5

Next structures:
SMILES	Mtb growth	Mtb bLac sens	YopH PTP inh	RecA intein inh	Arbovirus anti	others
Cn1c(=O)c2c(nc(NCc3ccccc3)n2CCCc2ccccc2)n(C)c1=O	-8%	-3	-33	-1.4	-3
Cc1cccc(C(=O)N[C@@H]2c3ccccc3C[C@@H]2O)n1	-15%	1	.	-0.6	.
CC1=CC(=Cc2sc3ccccc3[n+]2C)C=C(C)O1	4%	.	.	.	-11
CCn1cc(/C=C/c2cc[n+](C)cc2)c2ccccc21	.	11	.	-0.2	.
Cc1ccc(-c2nnc3n2N=C(c2ccccc2)CS3)cc1	9%	4	-34	0.9	4	Arbovirus anti repeat=6
Cc1ccc(C(=O)NCC(c2ccco2)N2CCOCC2)cc1 (stereo unspecified)	.	-9	.	-1.4	.
Cc1c(C(=O)N(Cc2ccccc2)C(C)C)oc2ccc(S(=O)(=O)N3CCOCC3)cc12	.	6	.	5.4	.
Cc1ccc(S(=O)(=O)n2c3ccc(F)cc3c3nc(C)sc32)cc1	3%	-2	-29	2.9	-5
Cc1nnc(NC(=O)CSc2ncn(-c3ccccc3)n2)s1	3%	0	.	-4.1	4
O=[N+]([O-])c1ccc(O)c(/C=N/Nc2ncnc3c2cnn3-c2ccccc2)c1	.	11	.	5.8	.
O=C(O)CCc1nn2cc(-c3ccccc3)nc2[nH]c1=O	-4%	-9	-22	-138	-3
CCOc1cc(Cl)c(S(=O)(=O)NCc2ccccn2)cc1Cl	-6%	-2	-16	1.4	-11
CCNc1cc(N2CCOCC2)nc(SC)n1	9%	0	.	1.1	1
COc1ccc(N(CC(=O)Nc2ccccc2C(N)=O)S(=O)(=O)c2ccc(C)c([N+](=O)[O-])c2)cc1	66%	95	.	0.9	-2
CN1CCN(C(=O)c2ccc3ccccc3c2)CC1	-4%	-3	-32	-2.0	1

A portion of the library. The share of hits here may be higher or lower than overall.
